HPGD block: qHTS Assay for Inhibitors of HPGD (15-Hydroxyprostaglandin Dehydrogenase); purified HPGD, NADH fluorescence kinetic, PGE2 substrate; hit rate 4.3% among 150,000; Potency, µM, inactives show top-dose activity change, negative = inhibition, actives largely listed as inhibitors; 15-hydroxyprostaglandin dehydrogenase [NAD(+)] (Homo sapiens), P15428; active = well fitted inhibition curve with a large enough effect (not every such curve was filed as active); inconclusive = small, poorly fitted or top-dose-only effect, or another doubt; inactive = no such curve, though single readings can be large or run the other way;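 also: top concentration of the series not given in the record; plate controls included wells without enzyme; inactives centre near -10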
Target sequence (P15428 whole entry, looked up): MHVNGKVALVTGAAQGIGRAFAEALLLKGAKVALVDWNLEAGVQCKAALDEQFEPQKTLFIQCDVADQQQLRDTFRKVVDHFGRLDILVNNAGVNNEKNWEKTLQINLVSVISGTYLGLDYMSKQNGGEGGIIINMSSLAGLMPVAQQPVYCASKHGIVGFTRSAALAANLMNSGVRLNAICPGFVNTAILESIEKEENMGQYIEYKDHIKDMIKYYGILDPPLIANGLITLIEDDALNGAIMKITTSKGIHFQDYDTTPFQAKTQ
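20 nM HPGD preincubated 15 min at room temperature with compound in 50 mM Tris-HCl pH 8, 0.01% Tween 20. Started with 1 mM NAD+ and 30 uM prostaglandin E2; NADH fluorescence (360/450 nm) read 5 times over 30-s intervals, last minus first.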
An asterisk follows results filed as active; ? = inconclusive. % is scaled to controls: 0 for no effect and ±100 for the full control effect; potency is read from the fitted curve at half-maximal effect. Some of the compounds tested; rates above refer to the full screens.

SMILES	HPGD block
CNC(=O)NC(=O)CSc1nnc(-c2ccco2)n1Cc1ccccc1	-2.8%
Cc1ccc(CNC(=O)C(NS(=O)(=O)c2ccc3nc(C)sc3c2)C(C)C)cc1 (stereo unspecified)	-1.9%
CCOC(=O)Nc1ccc2c(c1)Nc1ccccc1S2	-22.0%
CC(=O)Nc1cn(C(C)=O)c(C)n1	3.9%
O=C(NCc1ccccc1)C(c1ccccc1)N(Cc1cccs1)C(=O)c1cnccn1 (stereo unspecified)	0.3%
Cc1ccc(/C(O)=C2\C(=O)C(=O)N(CC(C)O)C2c2ccc(N(C)C)cc2)cc1 (stereo unspecified)	-15.1%
CN(C)[C@@H]1C(=O)C(C(=O)NCN2CCCC2)=C(O)[C@@]2(O)C(=O)C3=C(O)c4c(O)cccc4[C@@](C)(O)C3CC12 (stereo partly specified)	?
CCOc1cccc(CNn2cnnc2)c1OCc1ccccc1	-3.6%
Cc1cccc(CSc2ccc(-c3ccco3)nn2)c1	-19.2%
CCOC(=O)c1c(C)[nH]c(C(=O)CSc2nnc(CC(C)c3ccccc3)o2)c1C (stereo unspecified)	-5.4%
CCCc1nc(N)nc2c1C(=O)CC(C)(C)C2	-9.4%
Cn1c(CN2CCCC2)nc2cc(NS(=O)(=O)c3ccc(Cl)cc3)ccc21	-12.1%
COC(=O)c1cc(=O)n(CCc2ccc(OC)c(OC)c2)c(=Nc2ccc(F)c(Cl)c2)s1	-7.8%
O=C(COc1ccc([N+](=O)[O-])cc1)N/N=C/c1cc([N+](=O)[O-])ccc1N1CCOCC1	-14.9%
O=C(Nc1ccc2c(c1)OCO2)C1CC(c2ccc(F)cc2)=NO1 (stereo unspecified)	-7.6%
CCC(=O)Nc1ccc(-c2nn3c(C)nnc3s2)cc1C	-24.8%
CC1CCCCN1S(=O)(=O)c1ccc2c(c1)CCN2C(=O)CCC(=O)O (stereo unspecified)	-21.5%
Brc1cccc(-c2nnc3n2CCCCC3)c1	6.31µM*
COc1ccc(C2/C(=C(\O)c3cccc(OC)c3)C(=O)C(=O)N2c2ccccn2)cc1 (stereo unspecified)	-15.6%
Cc1ccn2c(-c3n[nH]c(=S)n3Cc3ccccc3)c(C)nc2c1	-25.5%
CN(C)c1cc(-c2ccccc2)nc(N)n1	-8.6%
COc1cccc(N2CCN(C(=O)CCn3c(=S)[nH]c4cc5c(cc4c3=O)OCO5)CC2)c1	-12.9%
COc1cnc(SCc2ccc(Cl)cc2)nc1Cl	-25.6%
CCOC(=O)C1=C(C)N=C2c3ccccc3C(=O)C2C1c1ccc(Cl)cc1 (stereo unspecified)	-5.8%
O=c1[nH]c(=O)n(C2CC(O)C(CO)O2)cc1C(F)(F)F (stereo unspecified)	-3.4%
CCOC(CCNC(=O)c1cn(-c2cccc(C)n2)cn1)OCC	-6.8%
O=C(Cn1nnc(-c2cccc(C(F)(F)F)c2)n1)NC(=O)NCc1ccco1	-13.1%
COc1ccc(NC(=O)C(c2ccc(OC)cc2)N(C)C(=O)CC2NC(=O)NC2=O)cc1 (stereo unspecified)	-9.9%
CCCCCc1nnc(NC(=O)C2CCCO2)s1 (stereo unspecified)	-6.9%
Nc1c(-c2ccccc2)cnn1C1CCS(=O)(=O)C1 (stereo unspecified)	-3.8%
O=C(Cn1ncc2c(=O)oc3ccccc3c21)NCC1COc2ccccc2O1 (stereo unspecified)	-7.3%
COc1ccc(CSc2nc(C)cc(=O)[nH]2)cc1	-29.2%
COC(=O)c1cc(C(=O)OC)cc(S(=O)(=O)Nc2ccc(Cl)c(N)c2)c1	1.0%
CN(C(=O)CSc1ncccc1C(=O)O)c1ccccc1	-16.3%
O=C1c2ccccc2C(=O)N1CCc1nc(-c2ccc(Cl)cc2)no1	-24.2%
COc1ccc(S(=O)(=O)N2CCC(NC(=O)Nc3ccc(C)cc3)CC2)cc1	-7.1%
COC(=O)N1C2CC3(C)C=C(C)OC1(C)C3c1ccccc12 (stereo unspecified)	-7.9%
COc1cc(C)c(Br)cc1S(=O)(=O)N1CCCC1	2.8%
O=C(c1cccc(F)c1)N1CCN(C(=O)c2cc(-c3ccc(Cl)cc3Cl)on2)CC1	-22.8%
Cc1nc2ccc3nc(NC(=O)c4ccc(S(=O)(=O)N5CCOCC5)cc4)sc3c2s1	?
Cc1cc(Br)c(S(=O)(=O)n2nnc3ccccc32)cc1C	-11.5%
O=C(NC(=S)NCC1CCCO1)c1ccccc1Br (stereo unspecified)	-4.6%
ON1C(c2ccc(Cl)cc2Cl)N(O)[C@H]2CCCC[C@H]21 (stereo partly specified)	-16.9%
CC(SCCc1ccccn1)C(=O)O (stereo unspecified)	-5.6%
Cc1onc(-c2ccccc2Cl)c1C(=O)N1CCN(c2cccc(Cl)c2)CC1	-15.0%

A run of entries taken from the entries so far, for reference:
SMILES	HPGD block
COc1ccc(CSc2nc(C)cc(=O)[nH]2)cc1	-29.2%
COC(=O)c1cc(C(=O)OC)cc(S(=O)(=O)Nc2ccc(Cl)c(N)c2)c1	1.0%
CN(C(=O)CSc1ncccc1C(=O)O)c1ccccc1	-16.3%
O=C1c2ccccc2C(=O)N1CCc1nc(-c2ccc(Cl)cc2)no1	-24.2%
COc1ccc(S(=O)(=O)N2CCC(NC(=O)Nc3ccc(C)cc3)CC2)cc1	-7.1%

Further structures follow.
SMILES	HPGD block
COc1ccc(F)cc1S(=O)(=O)N1CCN(Cc2ccc3c(c2)OCO3)CC1	0.3%
O=C(c1ccco1)c1nc2c(n1O)CCCCC2	-9.6%
CN1C(C)(C)CC(=NOC(=O)c2ccccc2)CC1(C)C	-0.2%
Cc1sc2c(c1C)CN(Cc1ccncc1)CN2C(=O)c1ccco1	-22.0%
Cc1ccc(C(=O)OCC(=O)Nc2ccc(N(C)C)cc2)cc1NC(=O)c1ccco1	-17.3%
COc1ccc(C2CC(=O)Oc3cc(C)c(Cl)c(C)c32)cc1 (stereo unspecified)	-17.0%
c1ccc(Oc2cccc(NC3=NCCC3)c2)cc1	-15.3%
CCn1cc(C(=O)NCc2ccccc2OC)c(=O)c2ccc(C)nc21	2.0%
CC(=O)N(C)c1nc(-c2ccc(Cl)cc2)cs1	-9.1%
COc1ccc(S(=O)(=O)N2CCC(C(=O)N3CCN(c4ccccc4OC)CC3)CC2)cc1	2.2%
C=CCN1c2ccccc2[C@]23C[C@@H](C(=O)OC)N(C(=O)c4cc(C)oc4C)C2=NC(C(=O)OC)=C(C(=O)OC)[C@H]13	-7.8%
Cc1cccc(-n2ncc3c(Nc4ccc(F)cc4)ncnc32)c1	-16.0%
Fc1ccc(-c2nnc3sc(C4COc5ccccc5O4)nn23)cc1 (stereo unspecified)	28.2µM*
COc1cccc2c1OC(=O)CC2c1ccccc1C (stereo unspecified)	?
Cn1cccc1-c1cc(C(=O)O)[nH]n1	-10.4%
CC12CCC(C(=O)N(NC(=O)c3ccccc3O)C1=O)C2(C)C (stereo unspecified)	?
O=[N+]([O-])c1ccc(CSCc2ccc(Cl)cc2)cc1	-10.3%
Cc1cc(-c2nc3ncccc3o2)ccc1N	?
CC1CC(C)CN(C(=O)CCNS(=O)(=O)c2ccc3c(c2)CCC(=O)N3)C1 (stereo unspecified)	-0.2%
O=C(Nc1ccc2c(c1)C(=O)N(CC1CCCO1)C2=O)c1ccccc1Br (stereo unspecified)	?
CCN(CC)S(=O)(=O)c1ccc(Cl)c(C(=O)Nc2nnc(C)s2)c1	-4.3%
COc1ccc(/C=C/C(=O)NCC(=O)N/N=C/c2cc(Br)ccc2OCc2ccccc2)cc1	-14.5%
COc1ccc(NC(=O)c2onc(C)c2Cl)cc1OC	-12.3%
Cc1cccc(NC(=O)C2CCCN2C(=O)OCC(C)C)c1C (stereo unspecified)	-14.1%
COc1ccc2c(c1)cc(C(=O)O)n2C	?
O=C(CN1CCN(c2ccc(F)cc2)CC1)OCc1ccccc1	-9.5%
COc1ccccc1-c1nccc(NCc2cnc(C)cn2)n1	-16.6%
CCn1cnc2sc(C(=O)O)c(C)c2c1=O	-15.3%
COc1cc(C)nc(N2CCCC(C(=O)Nc3cccc(Cl)c3Cl)C2)n1 (stereo unspecified)	-9.7%
O=C(Nc1ccccc1)N(CCc1nc2ccccc2[nH]1)C1CCCC1	-2.7%
CC(C)CCSc1nc(N)c(C#N)cc1C#N	-23.4%
COc1ccccc1C(=O)NCCn1cc(SCC(=O)NCc2ccco2)c2ccccc21	?
C=CCn1c(=O)c(C(=O)Nc2ccccc2OC)c(O)c2ccccc21	?
COc1nc(C#N)nc(N(C)C)n1	-4.3%
Cc1onc(-c2ccccc2Cl)c1C(=O)Nc1ccccc1N1CCOCC1	-14.0%
CSc1ccccc1NC(=O)c1ccc(C)o1	-14.7%
CC(=O)N/C(=C/c1ccc(OS(=O)(=O)c2ccc(C)cc2)cc1)C(=O)NCCO	-21.6%
CCOC(=O)C1=C(C)N(CCCC(=O)O)C(=O)NC1c1ccc([N+](=O)[O-])cc1 (stereo unspecified)	-11.3%
CCn1c2ccccc2c2cc(/C=N/NC(=O)c3ccc(O)cc3)ccc21	?
CCN(CC)CC(C(=O)N(CC)CC)P(=O)(c1ccccc1)c1ccccc1 (stereo unspecified)	-11.1%
O=S(=O)(c1ccc(Br)cc1)n1ccc2ccccc21	-14.1%
O=C(/C=C/c1ccccc1)NC(=S)Nc1ccc2c3c(cccc13)CC2	-8.0%
Cc1ccc(-n2nc3c(c2NC(=O)c2cccs2)CSC3)cc1	-5.5%
COc1ccc(/C=N/NC(=O)c2ccoc2C)cc1O	-12.8%
CC1CCN(S(=O)(=O)c2ccc(N=NC3=C(O)CC(C)(C)CC3=O)cc2)CC1	-10.9%
CC(=O)Nc1ccc(NC(=O)c2ccc(COc3ccc4c(C)cc(=O)oc4c3)cc2)cc1	?
CC(C)(Oc1cccc2ccccc12)C(=O)O	-24.5%
Cc1cc(C)c2c(-c3ccc(-c4ccc(C(F)(F)F)cc4)cc3)cc(=O)oc2c1	-8.0%
O=S(=O)(c1ccccc1)c1cnn2c(C(F)(F)F)cc(-c3ccc(F)cc3)nc12	?
Cc1cc(OCC(=O)NC2CCCCC2)ccc1Cl	-21.2%
COc1cc(OC)c(S(=O)(=O)Nc2ccc(C)cn2)cc1NC(C)=O	-10.8%
N#Cc1c(N)n(CCNC(=O)c2cccs2)c2nc3ccccc3nc12	?
Cc1ccc(S(=O)(=O)N(C)c2ccc(OCC(=O)OCc3c(C)noc3C)cc2)cc1	?
CC(C)(C)OC(=O)N[C@@H](Cc1c[nH]c2ccccc12)c1nnc(SCC(N)=O)o1	-2.5%
O=C(CN(C1CCCCC1)S(=O)(=O)c1ccccc1)N1CCCC1	-3.4%
CCCn1c(SCC(=O)NC)nnc1C(C)C	-1.0%
CCOc1nc(-c2ccccc2O)nc2ccccc12	12.6µM*
Cc1cccc(Nc2nc(N)nc(CN3CCN(C)CC3)n2)c1	-10.5%
CCOc1cc2[nH]c(=O)n(CCC(=O)NCCc3ccccc3)c(=O)c2cc1OCC	-21.4%
O=[N+]([O-])c1cc(S(=O)(=O)N2CCCC2)ccc1N/N=C1/CCCc2ccccc21	-14.2%

HPGD block: entries above that show a hit.
SMILES	HPGD block
Brc1cccc(-c2nnc3n2CCCCC3)c1	6.31µM*
Fc1ccc(-c2nnc3sc(C4COc5ccccc5O4)nn23)cc1 (stereo unspecified)	28.2µM*
CCOc1nc(-c2ccccc2O)nc2ccccc12	12.6µM*

An excerpt from above in order of heavy-atom count, low to high.
SMILES	HPGD block
CSc1ccccc1NC(=O)c1ccc(C)o1	-14.7%
CC12CCC(C(=O)N(NC(=O)c3ccccc3O)C1=O)C2(C)C (stereo unspecified)	?
CCn1c2ccccc2c2cc(/C=N/NC(=O)c3ccc(O)cc3)ccc21	?

Following part:
SMILES	HPGD block
COC(=O)C1Sc2[nH]c(=O)sc2C2c3ccccc3OC(=O)C12 (stereo unspecified)	-1.6%
CC1=CC(=O)C(C(C)C)=C/C1=N\OC(=O)c1cccc2nc(C)oc12	-12.8%
O=c1c(-c2cccc3ccccc23)[n+]([O-])c2ccccc2n1O	-11.4%
CCN1CCN(C(=O)c2nn(-c3ccccc3)c(=O)c3ccccc23)CC1	-3.8%
O=C(COC(=O)c1ccccc1Oc1ccccc1)NC1CCS(=O)(=O)C1 (stereo unspecified)	-5.0%
COc1ccccc1-c1nc(S(=O)(=O)c2ccc(Cl)cc2)c(N(C)C)o1	-5.8%
Cc1cc(-c2n[nH]c(=S)n2Cc2ccco2)nn1C	-15.9%
Cc1cc(C)cc(N(C(=O)C2CCCC2)C2C=CS(=O)(=O)C2)c1 (stereo unspecified)	-1.7%
Cc1ccc(C)c(S(=O)(=O)Nc2cc(SCC(=O)O)c(O)c3ccccc23)c1	0.891µM*
Cn1c(SCc2cccc3ccccc23)nnc1-c1ccco1	?
CCOC(=O)Cn1c(=O)oc2cc(S(=O)(=O)N3CCN(c4ccccn4)CC3)ccc21	-4.9%
O=C(c1ccc(Br)o1)N(c1ccccn1)C1CCCCC1	0.9%
CSc1nnc(-c2ccc(O)cc2)n1C	-11.5%
Cc1ccc(CNC(=O)c2c(C)cc(=O)oc2C)cc1	-19.4%
CCc1cccc(NC(=O)Cn2cccc2)c1	?
Fc1ccccc1-c1nc(-c2ccccc2)oc1NC1CCCCC1	-9.3%
Cc1cc(=O)[nH]c(SCc2cccc(F)c2)n1	-22.9%
CCCC(C(=O)NC1CCCC1)N(Cc1cccs1)C(=O)c1snc(C(N)=O)c1N (stereo unspecified)	?
COc1ccc(Cn2c(=O)sc3ccccc32)cc1	-2.9%
COc1ccccc1C(=O)n1nc(-c2ccccc2)nc1NCc1ccco1	-22.1%
O=C(N/N=C\c1cc(Cl)ccc1O)c1ccc(S(=O)(=O)N2CCCCC2)cc1	-13.9%
COc1ccc(NC(=O)Nc2cc(C)ccc2OC(F)F)c(OC)c1	-4.0%

Source: PubChem BioAssay (National Center for Advancing Translational Sciences (NCATS))
